Screening data as filed in PubChem.
Mtb betalactam – beta-lactam sensitization of Mtb H37Rv; inhibition, % at 25 µM; M. tuberculosis H37Rv growth with meropenem, percent inhibition; hits of this screen are not shown here; AID 434955; 330,000 tested, 0.27% active;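 active = about 74% or more and at least 40 points above the plate without the antibiotic, then above 30% in a dose series; inconclusive = first-round hits that could not be retested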;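 also: growth measured after seven days incubation then overnight dye step; 0% = bacteria only wells and 100% = bacteria with antibiotic; twin plates without the antibiotic show which effects depend on it; some results filed as inactive read as strong as hits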
Mtb growth – M. tuberculosis H37Rv growth inhibitors, H37Rv strain (AID 1626) | 220,000 tested, 0.95% active | M. tuberculosis H37Rv growth inhibition; higher % means a stronger effect | one-dose inhibition, % at 10 µM; IC50 in µM for titrated hits;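 active = confirmed in a dose series; inconclusive = inhibition above 80% but not taken into the dose series; inactive = below 80% or under 30% at every dose of the series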;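 also: bacteria incubated seven days before Alamar blue readout; 0% = bacteria only wells and 100% = bacteria with antibiotic wells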
YopH inh – blocks Yersinia enterocolitica YopH tyrosine phosphatase; fluorescence Ex485/Em525; inhibition, %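 (about 10 µM by stock and volumes)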; 140,000 tested, 0.16% active;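 active = inhibition of 50% or more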;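 also: controls were vehicle for no effect and minimum signal wells for full effect; inactives centre near -20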
Arbovirus anti – blocks arbovirus infection; inhibition, % at 10 µM; 200,000 tested, 0.37% active; arbovirus infection cell-based antiviral screen; AID 1251;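 active = inhibition from about 30%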;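 also: bluetongue infection of BSR cells; cell survival read as ATP light after 72 h; 0% = infected wells without compound and 100% = uninfected wells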
RecA splice inh – inhibitors of M. tuberculosis RecA intein splicing. P9WHJ3. cell-free RecA intein splicing, fluorescence. inhibition, %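 (about 9 µM by stock and volumes)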. 290,000 tested, 0.75% active; in the data active = inhibition above about 30%; inconclusive = no clear call, values can overlap the other calls;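 also: 0% = vehicle wells and 100% = reference inhibitor control wells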
Target sequence (P9WHJ3 whole entry, looked up, canonical isoform): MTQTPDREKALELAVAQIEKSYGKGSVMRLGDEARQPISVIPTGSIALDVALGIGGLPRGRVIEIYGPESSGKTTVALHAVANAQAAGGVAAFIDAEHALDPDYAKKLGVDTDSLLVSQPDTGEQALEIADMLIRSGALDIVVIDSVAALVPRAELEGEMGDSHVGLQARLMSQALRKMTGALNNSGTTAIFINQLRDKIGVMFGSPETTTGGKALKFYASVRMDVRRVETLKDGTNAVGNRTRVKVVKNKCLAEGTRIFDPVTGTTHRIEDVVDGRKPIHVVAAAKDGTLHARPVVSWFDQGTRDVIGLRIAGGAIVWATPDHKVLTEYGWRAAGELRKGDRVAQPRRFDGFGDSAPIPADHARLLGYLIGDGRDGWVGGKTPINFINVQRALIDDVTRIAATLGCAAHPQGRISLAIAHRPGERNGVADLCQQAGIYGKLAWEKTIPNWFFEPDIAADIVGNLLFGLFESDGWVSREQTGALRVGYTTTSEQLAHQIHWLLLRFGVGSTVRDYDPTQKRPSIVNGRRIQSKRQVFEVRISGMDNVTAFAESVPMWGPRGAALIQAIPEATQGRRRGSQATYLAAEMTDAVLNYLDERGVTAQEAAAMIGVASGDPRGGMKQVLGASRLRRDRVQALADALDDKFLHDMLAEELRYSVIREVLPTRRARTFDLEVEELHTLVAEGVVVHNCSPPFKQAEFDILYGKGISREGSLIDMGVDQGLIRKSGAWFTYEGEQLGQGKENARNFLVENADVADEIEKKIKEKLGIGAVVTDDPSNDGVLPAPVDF
Arbovirus anti repeat – recorded beside Arbovirus anti, whose call it bears; inhibition, %; measured here: 10K subset replicate screen; many hits read low in the repeat;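 first of two repeat runs on a subset; 0% = infected and 100% = uninfected wells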
* marks the source's active call; other numbers are inactive results. Only part of the results is shown (hit frequency here may not be typical).

What do the screens show for `COc1ccc(C2(C)NC(=O)N(Cc3cc(Cl)cc4c3OCOC4)C2=O)cc1OC` (centres undefined)?
Mtb betalactam: -1.4; Mtb growth: -0.8%; YopH inh: -32.6; Arbovirus anti: 0.5

Results for COc1ccc(CNC(=O)[C@@H](C)NC(=O)[C@@H]2Cc3ccccc3CN2)cc1 ?
Mtb betalactam: -1.2; RecA splice inh: 7.8

How did O=C1CC(C(=O)N2CCc3ccccc32)CN1c1ccc(F)cc1 (centres undefined) do in these assays?
Mtb betalactam: 1.8; RecA splice inh: -2.4

How did Nc1nnc(CCCCCc2nnc(N)s2)s1 do in these assays?
Mtb betalactam: -8.5; Mtb growth: -3.8%; Arbovirus anti: 2.7; RecA splice inh: 2.4

What do the screens show for `COC(=O)c1ccc(C2C(C(=O)c3cc4ccccc4o3)=C(O)C(=O)N2c2cc(C)on2)cc1` (centres undefined)?
Mtb betalactam: 4.3; RecA splice inh: 0.3

Results for Cn1cccc1CC(=O)N/N=C/C=C/c1ccccc1 ?
Mtb betalactam: -5.8; Mtb growth: -2.8%; YopH inh: -16.0; Arbovirus anti: 2.6; RecA splice inh: -2.8

What do the screens show for `Clc1ccccc1-c1nc2nc3ccccc3nc2n1-c1ccc2c(c1)OCO2`?
Mtb betalactam: -0.4; Mtb growth: 5.6%; YopH inh: -16.5; Arbovirus anti: -0.8; RecA splice inh: 5.5

What do the screens show for `COc1ccc(S(=O)(=O)N2CCN(C(=O)CN3C(=O)NC(C)(c4ccc5ccccc5c4)C3=O)CC2)cc1` (centres undefined)?
Mtb betalactam: -3.5; RecA splice inh: -0.8

Results for O=C(O)CSc1nc2ccccc2nc1Cc1ccccc1F ?
Mtb betalactam: 5.9; RecA splice inh: -0.4

Results for COc1ccc2[nH]c(=O)c(CNc3cccc(C)c3)cc2c1 ?
Mtb betalactam: 95.6; Mtb growth: 1.2%; YopH inh: 12.9; Arbovirus anti: -5.9; RecA splice inh: -6.7

What do the screens show for `COc1ccc(OC)c(-c2csc(N(C)C(=O)c3ccco3)n2)c1`?
Mtb betalactam: 5.5; RecA splice inh: -0.3

How did S=C(NCCN1CCOCC1)Nc1ccccc1Cl do in these assays?
Mtb betalactam: 6.0; Mtb growth: -3.9%; YopH inh: -20.7; Arbovirus anti: -0.8; RecA splice inh: -1.7

How did C(=N\n1cnnc1)/c1cccs1 do in these assays?
Mtb betalactam: 7.3; Mtb growth: -7.5%; YopH inh: -8.8; Arbovirus anti: 5.0; RecA splice inh: -4.4

Results for COc1ccc(OC)c(C(C(=O)NCc2ccco2)N(C(=O)Cn2nnc3ccccc32)C(C)C)c1 (centres undefined) ?
Mtb betalactam: 0.7; Mtb growth: 9.1%; YopH inh: -5.2; Arbovirus anti: 5.1; RecA splice inh: 0.2

How did O=C(Nc1nc2ccccc2s1)C1CC(=O)N(c2ccccc2)C1 (centres undefined) do in these assays?
Mtb betalactam: 31.4; Mtb growth: 1.8%; YopH inh: -20.5; Arbovirus anti: 15.8; RecA splice inh: -1.3

How did CCCN(CC1CC1)c1nc(N)c(C#N)c(CC#N)c1C#N do in these assays?
Mtb betalactam: 60.7; Mtb growth: 0.1%; YopH inh: -21.1; Arbovirus anti: -0.6; RecA splice inh: 1.1

How did CC(C)CNC(=O)CCCc1ccccc1 do in these assays?
Mtb betalactam: -3.0; Mtb growth: 5.2%; YopH inh: -11.5; Arbovirus anti: -2.0; RecA splice inh: -4.6

Results for CNC(=O)c1cccc(NC(=O)c2ccccc2OCc2ccccc2)c1 ?
Mtb betalactam: -0.1; RecA splice inh: -0.5

How did CCOc1ccc(Nc2nc(N)c([N+](=O)[O-])c(N3CCOCC3)n2)cc1 do in these assays?
Mtb betalactam: -2.5; RecA splice inh: 1.5

Results for O=c1[nH]nc(Cc2ccc(-c3ccccc3Cl)o2)c2ccccc12 ?
Mtb betalactam: 8.6; Mtb growth: 2.3%; YopH inh: -0.8; Arbovirus anti: 1.6; RecA splice inh: 0.9

The last 5 compounds of the section before come first, to join the parts:
How did CCCN(CC1CC1)c1nc(N)c(C#N)c(CC#N)c1C#N do in these assays?
Mtb betalactam: 60.7; Mtb growth: 0.1%; YopH inh: -21.1; Arbovirus anti: -0.6; RecA splice inh: 1.1

How did CC(C)CNC(=O)CCCc1ccccc1 do in these assays?
Mtb betalactam: -3.0; Mtb growth: 5.2%; YopH inh: -11.5; Arbovirus anti: -2.0; RecA splice inh: -4.6

Results for CNC(=O)c1cccc(NC(=O)c2ccccc2OCc2ccccc2)c1 ?
Mtb betalactam: -0.1; RecA splice inh: -0.5

How did CCOc1ccc(Nc2nc(N)c([N+](=O)[O-])c(N3CCOCC3)n2)cc1 do in these assays?
Mtb betalactam: -2.5; RecA splice inh: 1.5

Results for O=c1[nH]nc(Cc2ccc(-c3ccccc3Cl)o2)c2ccccc12 ?
Mtb betalactam: 8.6; Mtb growth: 2.3%; YopH inh: -0.8; Arbovirus anti: 1.6; RecA splice inh: 0.9

What do the screens show for `CN(NC(=O)Nc1ccccc1)c1cnn(C)c(=O)c1Cl`?
Mtb betalactam: 9.9; Mtb growth: -5.4%; RecA splice inh: -1.0

Results for CCOc1ccccc1OCC(=O)Nc1ccccc1C(=O)NC1CC1 ?
Mtb betalactam: -5.0; RecA splice inh: -0.5

Results for CCC1(C)CC(=O)N(c2ccc(F)c(Cl)c2)C(=O)C1 ?
Mtb betalactam: -6.8; RecA splice inh: 0.7

Results for COCCCN1C(=O)C(=O)/C(=C(/O)c2ccc(S(=O)(=O)N3CCOCC3)cc2)C1c1ccc(C(C)C)cc1 (centres undefined) ?
Mtb betalactam: 3.5; RecA splice inh: 1.4

How did COc1coc(C(O)C[N+](=O)[O-])cc1=O (centres undefined) do in these assays?
Mtb betalactam: -3.3; Mtb growth: -0.1%; YopH inh: -14.3; Arbovirus anti: -1.1

How did COc1ccc(O[C@H]2C=C[C@@H](c3ccccc3)O[C@@H]2CO/N=C(\C)CCC(=O)OC[C@H]2O[C@H](c3ccccc3)C=C[C@@H]2Oc2ccc(OC)cc2)cc1 do in these assays?
Mtb betalactam: -15.7; YopH inh: -20.8; Arbovirus anti: 10.5; RecA splice inh: -0.7

How did O=C(c1ccc2c(c1)CCN2S(=O)(=O)c1ccccc1)N1CCN(c2ccccc2F)CC1 do in these assays?
Mtb betalactam: 4.1; RecA splice inh: 10.3

Results for COc1ccc(NC(=O)C2CCN(S(=O)(=O)c3cccnc3)CC2)cc1Cl ?
Mtb betalactam: -3.4; YopH inh: -28.1; Arbovirus anti: -5.6; RecA splice inh: 0.8; Arbovirus anti repeat: 3.8

Results for COc1ccc(C(=O)OCC(=O)Nc2c(C)cccc2C)cc1 ?
Mtb betalactam: 3.3; RecA splice inh: -5.3

What do the screens show for `O=C(OC1CCc2ccccc2C1=O)c1ccccc1O` (centres undefined)?
Mtb betalactam: 6.4; Mtb growth: 1.0%; YopH inh: 15.4; Arbovirus anti: 1.7

Results for CCn1c(COc2ccccc2C(N)=O)nc2ccccc21 ?
Mtb betalactam: -13.6; Mtb growth: -5.0%; YopH inh: -15.0; Arbovirus anti: 1.1; RecA splice inh: -1.9

Results for Cc1ccc(C(=O)NCC(=O)O)o1 ?
Mtb betalactam: -1.3; Mtb growth: 2.0%; Arbovirus anti: 5.6; RecA splice inh: 5.2

What do the screens show for `O=C(NC1CC2CCC(C1)N2Cc1ccccc1)c1ccccc1Cl` (centres undefined)?
Mtb betalactam: -4.4; RecA splice inh: -3.0

What do the screens show for `COc1ccc(OC)c(NC(=O)C2CC(=O)N(c3ccc(Br)cc3)C2)c1` (centres undefined)?
Mtb betalactam: 1.0; Mtb growth: 2.1%; YopH inh: -38.5; Arbovirus anti: -0.3; RecA splice inh: -1.1

What do the screens show for `Cc1cc(C)c2[nH]c(=O)c(C(c3nnnn3Cc3ccc4c(c3)OCO4)N3CCCC3)cc2c1` (centres undefined)?
Mtb betalactam: 11.8; Mtb growth: 0.3%; YopH inh: -38.3; Arbovirus anti: 3.9; RecA splice inh: -0.7

How did Clc1ccc(Cn2ccc(C3CC3)n2)cc1 do in these assays?
Mtb betalactam: 0.7; Mtb growth: 0.8%; Arbovirus anti: -2.2; RecA splice inh: -1.5

Results for CC(=O)N[C@@H]1[C@@H](O)[C@@H]2OC(c3ccccc3)OC[C@H]2O[C@@H]1N=[N+]=[N-] (some centres undefined) ?
Mtb betalactam: -5.7; RecA splice inh: -0.6

How did C[C@]12CCC(=O)C=C1CC[C@@H]1C2[C@H](O)C[C@]2(C)C(=O)CCC12 (some centres undefined) do in these assays?
Mtb betalactam: inconclusive; RecA splice inh: -1.7

How did O=C(CN1Cc2ccccc2C1=O)Nc1ccc2c(c1)OCCO2 do in these assays?
Mtb betalactam: inconclusive; RecA splice inh: -7.3

What do the screens show for `COc1ccc(-n2c(-c3ccc(Cl)cc3)c[n+]3c2CCc2ccccc2-3)cc1`?
Mtb betalactam: 77.1; Mtb growth: 3.2%; Arbovirus anti: -5.3; RecA splice inh: 2.6

How did NS(=O)(=O)c1ccc(NC(=O)C(Sc2ccccc2)c2ccccc2)cc1 (centres undefined) do in these assays?
Mtb betalactam: 4.8; Mtb growth: 2.3%; YopH inh: -23.8; Arbovirus anti: 16.0; RecA splice inh: 5.2

How did Cc1cc(C)n2nc(-c3sccc3-n3cccc3)cc2n1 do in these assays?
Mtb betalactam: -12.1; Mtb growth: 0.0%; YopH inh: -10.6; Arbovirus anti: -0.8; RecA splice inh: -2.8

Results for O=C(C(=O)N1CCC2(CC1)OCCO2)c1c[nH]c2ccccc12 ?
Mtb betalactam: 4.4; Mtb growth: -4.4%; Arbovirus anti: -1.3; RecA splice inh: 0.7

What do the screens show for `CCc1nc2ccc(C(=O)NCc3ccccc3)cc2nc1CC`?
Mtb betalactam: -3.7; Mtb growth: 1.9%; Arbovirus anti: -2.0; RecA splice inh: 0.8

How did O=C(c1cccs1)c1no[n+]([O-])c1C(=O)c1cccs1 do in these assays?
Mtb betalactam: 6.2; Mtb growth: -0.2%; YopH inh: 86.8*; Arbovirus anti: -3.5; RecA splice inh: 5.2

Results for Cn1c(C(=O)N2CCN(c3cccc(C(F)(F)F)c3)CC2)cc2sccc21 ?
Mtb betalactam: 52.3; Mtb growth: 9.0%; YopH inh: -28.8; Arbovirus anti: -15.6; RecA splice inh: 10.9

What do the screens show for `CNC(=O)CS(=O)CC(=O)Nc1cc(OCCOC)c(Cl)cc1Cl` (centres undefined)?
Mtb betalactam: -3.0; Mtb growth: 6.1%; Arbovirus anti: -1.3

What do the screens show for `Cc1cccc(C2Nc3ccccc3C(=O)N2c2ccccc2)n1` (centres undefined)?
Mtb betalactam: 12.2; Mtb growth: -1.8%; YopH inh: -45.1; Arbovirus anti: 14.3; RecA splice inh: -3.8; Arbovirus anti repeat: 2.4

How did O=C(O)c1cc(=O)[nH]c2ccc(S(=O)(=O)Nc3ccc(F)cc3)cc12 do in these assays?
Mtb betalactam: 6.4; RecA splice inh: -6.0

What do the screens show for `COc1cccc(CNC(=O)CSc2nnc3c(n2)[nH]c2ccc(F)cc23)c1`?
Mtb betalactam: 5.7; RecA splice inh: -3.7

What do the screens show for `Cn1c(SCC(=O)N/N=C/c2cccnc2)nnc1-c1ccccc1`?
Mtb betalactam: -6.5; Mtb growth: -5.4%; RecA splice inh: -1.0

How did COC(=O)c1ccc(CN(Cc2ccc(C(=O)OC)o2)C(C)(C)C)o1 do in these assays?
Mtb betalactam: -5.0; YopH inh: -30.5; Arbovirus anti: 1.8; RecA splice inh: -2.3

Results for COc1cc(OC)c2c(-c3ccccc3)cc(=O)oc2c1C(CCN1CCCC1)c1ccc2c(c1)OCO2 (centres undefined) ?
Mtb betalactam: 97.0; Mtb growth: 77.0%; RecA splice inh: 8.9

What do the screens show for `CCCNC(=S)NNC(=O)c1cccs1`?
Mtb betalactam: 2.3; Mtb growth: 6.7%; Arbovirus anti: -0.3; RecA splice inh: 3.1

What do the screens show for `COc1ccccc1/C=C/c1nc(C#N)c(N(C)C)o1`?
Mtb betalactam: 1.9; RecA splice inh: -84.5

How did COc1ccc(OC)c(S(=O)(=O)N2CCCCCC2)c1 do in these assays?
Mtb betalactam: 8.3; Mtb growth: -7.4%; YopH inh: -43.4; Arbovirus anti: 5.9; RecA splice inh: 1.5

Results for CC(NC(=O)c1cc2cc(Br)ccc2oc1=N)c1ccccc1 (centres undefined) ?
Mtb betalactam: 24.5; RecA splice inh: 3.3

What do the screens show for `Cc1ccc(C(=O)NCC(=O)NC2CCCCCC2)cc1`?
Mtb betalactam: -0.8; RecA splice inh: 1.2

Results for COc1cc(/C=N/n2c(C3CCCCC3)n[nH]c2=S)ccc1O ?
Mtb betalactam: -1.5; RecA splice inh: -1.4

What do the screens show for `Cc1ccc(S(=O)(=O)N2CCCC2C(=O)NC2=NCCS2)cc1` (centres undefined)?
Mtb betalactam: -16.7; Mtb growth: -10.7%; YopH inh: -30.8; Arbovirus anti: 0.5; RecA splice inh: 1.6
